# Screening data (PubChem)
# rRNA inh HTS: inhibitors of bacterial rRNA selective over humanized ribosomes; GFP signal change (wild-type ribosome), % (no concentration beside the values); E. coli WT GFP vs humanized-ribosome RFP mutants, fluorescence, 24 h; hits give low values; DMSO median 0, no signal -100; 350,000 compounds, 1.6% hits;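 active = significant combined selectivity score with lowered wild-type GFP, culture density cut under 30%, mutant RFP and density less affected; inactive = any of these conditions unmet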; also: one replicate is shown; some compounds called inactive have numbers as strong as hits
# FGF22 binding: shifts melting point of recombinant human FGF22 | recombinant FGF22 thermal shift, SYPRO orange fluorescence; percent of sucrose octasulfate shift, DMSO zero | calls only at 9.99 µM | 340,000 compounds, 1.5% hits | AID 651658;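 active = melting point raised past a set limit in the mean and every replicate; three in four hits are not shown here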
# Target sequence (Q9HCT0 whole entry, looked up): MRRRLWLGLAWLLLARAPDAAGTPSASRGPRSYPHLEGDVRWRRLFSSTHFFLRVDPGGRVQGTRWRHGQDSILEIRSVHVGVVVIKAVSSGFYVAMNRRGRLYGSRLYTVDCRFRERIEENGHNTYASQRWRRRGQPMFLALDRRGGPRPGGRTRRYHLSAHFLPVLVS
# rRNA inh HTS OD600: recorded beside rRNA inh HTS, whose call it bears; OD600 change, %; measured here: OD600 growth;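 optical density of the mix in the first replicate; 0 = DMSO median and -100 = no signal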
# rRNA inh HTS RFP: further read-out of rRNA inh HTS, marked with its call; RFP signal change, %; measured here: RFP humanized mutant strains;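 first replicate; 0 = DMSO median and -100 = no signal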
# * hit, by the source's call; i = inactive; + = active, no number; & = joins results of further samples.
SMILES,rRNA inh HTS,rRNA inh HTS OD600,rRNA inh HTS RFP,FGF22 binding
C[C@H]1CN([C@@H](C)CO)C(=O)c2cc(NC(=O)Nc3ccc(C(F)(F)F)cc3)ccc2O[C@H]1CN(C)C(=O)Nc1cccc2ccccc12,-4,-5,1.3,i
COc1ccc(NC(=O)Nc2cccc3c2O[C@@H](CN(C)C(=O)Nc2cccc4ccccc24)[C@H](C)CN([C@@H](C)CO)C3=O)cc1,1,2,6.2,i
COc1ccc(CN2C[C@H](O)COC[C@@H]3O[C@@H](CC(=O)NCCN4CCCC4)CC[C@H]32)cc1,3,8,-2.3,i
C[C@H]1CN([C@@H](C)CO)C(=O)c2cccc(NS(=O)(=O)c3ccccc3)c2O[C@H]1CN(C)S(=O)(=O)c1ccc(Cl)cc1,-2,-10,-0.4,i
Cc1cccc(S(=O)(=O)N2C[C@@H]3N[C@H](C2)C3c2ccc(-c3ccccc3C)cc2)c1 (stereo partly specified),-62&3,-72&10,-16&-1.3,i
C[C@@H]1CCCCO[C@@H](CN(C)C(=O)CCC(F)(F)F)[C@@H](C)CN([C@H](C)CO)C(=O)c2cc(NC(=O)c3ccncc3)ccc2O1,0,9,-3.2,i
Cc1cc(N2CCN(CC(C)(C)O)C[C@H]2C)ccc1N1CCN(Cc2ccccc2)[C@@H](C)C1,-1,-6,2.6,i
CN1c2ccc(C3=CCCCC3)cc2[C@H]2[C@H](CCN2C(=O)NC2CCCCC2)[C@@H]1CO,-9,-7,6.0,i
COCC(=O)Nc1ccc2c(c1)C(=O)N(C)[C@@H]1CC[C@H](CC(=O)NCc3cccc(F)c3)O[C@@H]1CO2,2,3,0.4,i
Cc1ccc(S(=O)(=O)Nc2ccc3c(c2)CC(=O)N([C@@H](C)CO)C[C@H](C)[C@@H](CN(C)S(=O)(=O)c2ccccc2)O3)cc1,-4,0,1.1,i
C[C@H]1CN([C@@H](C)CO)C(=O)c2cc(NS(=O)(=O)c3ccc(Cl)cc3)ccc2O[C@@H]1CN(C)S(=O)(=O)c1ccccc1,-4,-9,3.8,i
Cc1ccccc1NC(=O)Nc1ccc2c(c1)C(=O)N(C)[C@@H]1CC[C@@H](CC(=O)O)O[C@@H]1CO2,1,6,-0.5,i
Cc1cccc2nc(-c3ccccc3)c(-c3ccc(CN4CCC(c5nc6ccccc6[nH]5)CC4)cc3)nc12,-14,-33,25,i
C[C@@H]1CN([C@H](C)CO)C(=O)c2cc(NS(C)(=O)=O)ccc2O[C@@H](C)CCCCO[C@@H]1CN(C)Cc1ccc(C(F)(F)F)cc1,2,-14,5.7,i
NC(=O)c1ncn([C@@H]2O[C@H](C(=O)N[C@H](Cc3c[nH]c4ccccc34)C(=O)N3CCN(C(=O)N4CCOCC4)CC3)[C@@H](O)[C@H]2O)n1,27,11,2.4,i
COc1ccc(S(=O)(=O)Nc2cccc3c2O[C@@H](CN(C)S(=O)(=O)c2ccc(C)cc2)[C@@H](C)CN([C@@H](C)CO)C3=O)cc1,-5,2,-2.2,i
COc1ccc(NC(=O)N(C)C[C@@H]2OCCCC[C@H](C)Oc3ccc(NC(=O)Nc4cccc5ccccc45)cc3C(=O)N([C@@H](C)CO)C[C@H]2C)cc1,-4,-2,-2.4,i
O=C(N[C@H](Cc1ccccc1)C(=O)NCCN1CCOCC1)[C@H]1O[C@@H](n2ccc(=O)[nH]c2=O)[C@H](O)[C@@H]1O,9,1,2.8,i
CCCNC(=O)C[C@@H]1CC[C@@H]2[C@H](COc3ccc(NC(=O)Cc4cccs4)cc3C(=O)N2C)O1,0,0,0.0,i
C[C@@H]1CCCCO[C@H](CN(C)Cc2ccc(C(F)(F)F)cc2)[C@H](C)CN([C@H](C)CO)C(=O)c2cc(NS(C)(=O)=O)ccc2O1,-3,-9,-0.5,i
CO[C@H]1CN(C)C(=O)c2cc(NC(=O)c3cccc(F)c3)ccc2OC[C@H](C)N(C)C[C@@H]1C,-1,-6,0.7,i
Cc1cccc(S(=O)(=O)N2C[C@H](O)COC[C@@H]3O[C@@H](CC(=O)Nc4ccc(-c5ccccc5)cc4)CC[C@H]32)c1,6,-18,20,i
Cc1ccccc1C(=O)N[C@H](C(=O)N1CCC[C@H]1C(=O)NCc1ccccc1)C(C)C,-3,-3,4.6,i
Cc1cc(C)cc(NC(=O)Nc2ccc3c(c2)C(=O)N(C)[C@@H]2CC[C@@H](CC(=O)O)O[C@H]2CO3)c1,4,2,2.0,i
O=C(Cc1ccncc1)N1CC[C@@H]2[C@H]1c1cc(-c3cccc(F)c3)ccc1N[C@@H]2CO,10,-7,6.1,i

# 5 structures out of the list, arranged by heavy-atom count, lowest first:
SMILES,rRNA inh HTS,rRNA inh HTS OD600,rRNA inh HTS RFP,FGF22 binding
Cc1ccccc1C(=O)N[C@H](C(=O)N1CCC[C@H]1C(=O)NCc1ccccc1)C(C)C,-3,-3,4.6,i
Cc1cc(C)cc(NC(=O)Nc2ccc3c(c2)C(=O)N(C)[C@@H]2CC[C@@H](CC(=O)O)O[C@H]2CO3)c1,4,2,2.0,i
COc1ccc(S(=O)(=O)Nc2cccc3c2O[C@@H](CN(C)S(=O)(=O)c2ccc(C)cc2)[C@@H](C)CN([C@@H](C)CO)C3=O)cc1,-5,2,-2.2,i
NC(=O)c1ncn([C@@H]2O[C@H](C(=O)N[C@H](Cc3c[nH]c4ccccc34)C(=O)N3CCN(C(=O)N4CCOCC4)CC3)[C@@H](O)[C@H]2O)n1,27,11,2.4,i
COc1ccc(NC(=O)N(C)C[C@@H]2OCCCC[C@H](C)Oc3ccc(NC(=O)Nc4cccc5ccccc45)cc3C(=O)N([C@@H](C)CO)C[C@H]2C)cc1,-4,-2,-2.4,i

# The main list resumes, repeating the 4 entries before the break.
SMILES,rRNA inh HTS,rRNA inh HTS OD600,rRNA inh HTS RFP,FGF22 binding
Cc1cccc(S(=O)(=O)N2C[C@H](O)COC[C@@H]3O[C@@H](CC(=O)Nc4ccc(-c5ccccc5)cc4)CC[C@H]32)c1,6,-18,20,i
Cc1ccccc1C(=O)N[C@H](C(=O)N1CCC[C@H]1C(=O)NCc1ccccc1)C(C)C,-3,-3,4.6,i
Cc1cc(C)cc(NC(=O)Nc2ccc3c(c2)C(=O)N(C)[C@@H]2CC[C@@H](CC(=O)O)O[C@H]2CO3)c1,4,2,2.0,i
O=C(Cc1ccncc1)N1CC[C@@H]2[C@H]1c1cc(-c3cccc(F)c3)ccc1N[C@@H]2CO,10,-7,6.1,i
COc1ccccc1CNC(=O)C[C@H]1C[C@H]2c3cc(NC(=O)CC4CC4)ccc3O[C@H]2[C@H](CO)O1,-1,-5,3.0,i
C[C@@H]1CCCCO[C@@H](CN(C)Cc2ccc(C(F)(F)F)cc2)[C@@H](C)CN([C@H](C)CO)C(=O)c2cc(NC(=O)Nc3cccc4ccccc34)ccc2O1,5,13,1.8,i
COC(=O)C[C@H]1CC[C@H]2[C@H](COc3ccc(NC(=O)c4cc(F)cc(F)c4)cc3C(=O)N2C)O1,-4,-2,31,i
O=C(N[C@@H](Cc1cccnc1)C(=O)N1CCC[C@H]1C(=O)NC1CCCC1)c1cccs1,0,9,-1.2,i
COc1cccc(C(=O)Nc2ccc3c(c2)C(=O)N(C)[C@@H]2CC[C@H](CC(=O)NCc4ccc(F)cc4)O[C@@H]2CO3)c1,-5,-5,2.7,i
CN1C(=O)c2cc(NC(=O)c3cccc(F)c3)ccc2OC[C@@H]2O[C@H](CC(=O)NCc3ccccc3)CC[C@@H]21,-4,-17,3.3,+
C[C@@H]1CN([C@H](C)CO)C(=O)c2cc(NC(=O)Cc3ccccc3)ccc2O[C@@H](C)CCCCO[C@@H]1CN(C)S(=O)(=O)c1cccs1,-2,4,0.2,i
CNC(=O)C[C@@H]1CC[C@@H]2[C@H](COc3ccc(NC(=O)c4cscn4)cc3C(=O)N2C)O1,0,2,-1.0,i
COCCNC(=O)C[C@H]1CC[C@@H]2[C@H](COC[C@H](O)CN2C(=O)c2cc(Cl)cc(Cl)c2)O1,3,15,-3.0,i
C[C@H]1CCCCO[C@H](CN(C)C(=O)Nc2cccc3ccccc23)[C@@H](C)CN([C@@H](C)CO)C(=O)c2cc(NC(=O)CCC(F)(F)F)ccc2O1,0,6,5.2,i
Cc1noc(C)c1S(=O)(=O)N(C)C[C@@H]1Oc2ccc(NC(=O)Cc3ccccc3)cc2CC(=O)N([C@H](C)CO)C[C@@H]1C,5,0,2.3,i
C[C@H](O)[C@@H]1CN2CCc3ccc(-c4ccc5c(c4)OCO5)cc3[C@@H]2C[C@@H]1N(C)C(=O)c1cccc(Cl)c1,9,2,18,i
CCCC(=O)Nc1ccc2c(c1)C(=O)N(C)[C@@H]1CC[C@@H](CC(=O)NCc3ccccc3F)O[C@@H]1CO2,2,-5,0.9,i
COc1ccc(S(=O)(=O)Nc2ccc3c(c2)C(=O)N([C@@H](C)CO)C[C@H](C)[C@@H](CN(C)Cc2ccc(Cl)c(Cl)c2)OCCCC[C@@H](C)O3)cc1,0,-4,4.4,i
CN(C)C(=O)c1cccc(-c2ccc(C3[C@@H]4CN(C(=O)CN5CCOCC5)C[C@H]3N4)cc2)c1 (stereo partly specified),0&5,2&17,-0.9&-1.9,i
C[C@@H](NC(=O)C[C@@H]1CC[C@H]2[C@@H](COC[C@@H](O)CN2C(=O)Nc2cccc(Cl)c2)O1)c1ccccc1,-58,-76,-20,i
O=C(/C=C(\Nc1cccc(Cl)c1)c1ccccc1)c1ccccc1,-16,-32,-11,i
COc1cc2c(c(OC)c1OC)C1(CCCCC1)CC2NC(=O)c1ccncc1 (stereo unspecified),-2,3,3.2,i
COC(=O)C1=C(C)N(Cc2ccc(Cl)cc2)C(=S)NC1c1ccc(Cl)cc1 (stereo unspecified),15,7,6.2,i
CCCN1C[C@H](C)[C@@H](OC)CN(C)C(=O)c2ccc(NC(=O)c3ccccc3F)cc2OC[C@H]1C,-3,-6,0.8,i
COc1ccc2c3c([nH]c2c1)[C@H](CO)N(Cc1ccccc1F)CC31CCN(C(=O)C2CCC2)CC1,0,-3,4.2,i
Cc1ccccc1C(=O)NC1CCCCN(C)C1=O (stereo unspecified),-1,1,-0.2,i
Cc1cccc(S(=O)(=O)N2C[C@H](O)COC[C@H]3O[C@@H](CC(=O)Nc4ccc(-c5ccccc5)cc4)CC[C@@H]32)c1,-5,-13,-1.9,i
C[C@@H]1CN([C@H](C)CO)C(=O)c2cc(NC(=O)Cc3ccccc3)ccc2O[C@@H](C)CCCCO[C@H]1CN(C)S(=O)(=O)c1cccs1,-1,-5,-1.1,i
C[C@@H]1CN([C@@H](C)CO)C(=O)Cc2cc(NS(=O)(=O)c3cccs3)ccc2O[C@H]1CN(C)Cc1ccncc1,-2,-4,-0.5,i
SMILES,rRNA inh HTS,rRNA inh HTS OD600,rRNA inh HTS RFP,FGF22 binding
COc1ccc(NC(=O)Nc2ccc3c(c2)C(=O)N([C@H](C)CO)C[C@H](C)[C@H](CN(C)C(=O)CCC(F)(F)F)OCCCC[C@H](C)O3)cc1,0,0,1.6,i
C[C@@H]1CCCCO[C@@H](CN(C)S(=O)(=O)c2cccs2)[C@@H](C)CN([C@@H](C)CO)C(=O)c2cc(NC(=O)c3ccccc3)ccc2O1,0,8,0.2,i
O=C(NC1CCCC1)[C@@H]1CCCN1C(=O)[C@@H](NC(=O)N1CCOCC1)c1ccccc1,22,13,1.8,i
COCc1cc(N2CCN(C(=O)OC(C)(C)C)C[C@@H]2C)ccc1N1CC[C@@H](O)C1,3,6,1.5,i
COc1ccc(S(=O)(=O)Nc2cccc3c2O[C@H](CN(C)S(=O)(=O)c2ccc(C)cc2)[C@H](C)CN([C@H](C)CO)C3=O)cc1,-2,-6,-1.3,i
CCCNC(=O)Nc1ccc2c(c1)C(=O)N(C)[C@@H]1CC[C@@H](CC(=O)NC)O[C@H]1CO2,3,-3,-0.6,i
O=S(=O)(c1ccccc1)N1CC2(C1)[C@@H](c1ccccc1)[C@@H](CO)N2CC1CCOCC1,-7,-1,-0.5,i
COCC(=O)N1[C@@H]2CN(C(=O)Nc3ccccc3Cl)c3ccccc3[C@@H]2[C@@H]1CO,-12,4,4.7,i
COc1ccc(S(=O)(=O)Nc2ccc3c(c2)C(=O)N([C@@H](C)CO)C[C@H](C)[C@@H](CN(C)C(=O)Nc2cccc4ccccc24)OCCCC[C@H](C)O3)cc1,1,0,5.7,i
C[C@@H]1ON(C)[C@H]2C[C@H]3c4[nH]c5c(-c6ccccc6)cccc5c4CCN3C[C@@H]12,-26*,-0.4*,6.9*,i
OC[C@H]1Nc2ccc(-c3ccc(F)cc3)cc2[C@@H]2[C@H]1CCN2Cc1ccc(F)cc1,-57,-74,-15,i
O=C(NCC[C@H]1CC[C@@H](NC(=O)Nc2cc(F)ccc2F)[C@@H](CO)O1)Nc1ccc(Cl)cc1,-20,-46,7.6,i
COc1ccc2c3c([nH]c2c1)[C@H](CO)N(CC1CC1)CC31CN(C(=O)Nc2cccc(F)c2)C1,-4,-2,0.4,i
C[C@H]1CCCCO[C@H](CN(C)Cc2ccc3c(c2)OCO3)[C@@H](C)CN([C@@H](C)CO)C(=O)c2cc(NC(=O)Nc3cccc4ccccc34)ccc2O1,0,-19,14,i
Cc1ccc(S(=O)(=O)Nc2ccc3c(c2)C(=O)N([C@@H](C)CO)C[C@H](C)[C@@H](CN(C)C(=O)c2ccncc2)OCCCC[C@@H](C)O3)cc1,0,7,-1.0,i
N#Cc1ccc(-c2ccc([C@@H]3[C@@H]4CN(C(=O)Nc5ccc6c(c5)OCO6)C[C@H]3N4)cc2)cc1,-1,4,1.3,i
O=C(C[C@@H]1CC[C@H]2NC[C@H](O)COC[C@@H]2O1)Nc1nccs1,1,14,-0.9,i
C[C@@H]1CN([C@H](C)CO)C(=O)Cc2cc(NC(=O)CCCN(C)C)ccc2O[C@@H]1CN(C)S(=O)(=O)c1cccs1,3,11,-1.7,i

# This is a subset; the hit share may differ from the screen's.
